VDR inhibitor = Inhibitors of the vitamin D receptor (VDR): qHTS | VDR-SRC2-3 peptide fluorescence polarization, 2 h | hit rate 0.93% among 400,000 | Vitamin D3 receptor (Homo sapiens), P11473 | Potency, µM, inactives show max response, negative = inhibition, most hits filed as inhibitors; active = well fitted inhibition curve with a large enough effect; inconclusive = small, poorly fitted or top-dose-only effect, or another doubt; inactive = no such curve, though single readings can be large or run the other way; note: series mostly up to about 120 µM
Target sequence (P11473 whole entry, looked up): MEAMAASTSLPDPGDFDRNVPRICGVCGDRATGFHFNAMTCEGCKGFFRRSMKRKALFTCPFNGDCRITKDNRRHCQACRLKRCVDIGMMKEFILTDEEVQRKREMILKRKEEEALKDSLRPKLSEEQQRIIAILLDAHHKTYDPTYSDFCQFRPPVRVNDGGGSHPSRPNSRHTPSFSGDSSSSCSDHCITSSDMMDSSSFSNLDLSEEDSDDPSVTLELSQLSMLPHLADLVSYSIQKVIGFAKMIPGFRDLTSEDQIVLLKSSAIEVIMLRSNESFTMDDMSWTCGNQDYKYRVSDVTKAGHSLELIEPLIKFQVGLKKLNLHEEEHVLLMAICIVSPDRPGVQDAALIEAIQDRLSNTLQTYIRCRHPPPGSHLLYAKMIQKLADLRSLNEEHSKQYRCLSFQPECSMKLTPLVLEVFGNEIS
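Measured by FP: displacement of SRC2-3 coactivator peptide from VDR by library compounds, following a two-hour ambient incubation.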
The depositor's hits bear a star; i = inactive; ? = inconclusive; & = joins results of further samples. % is set by controls: 0 for no effect and ±100 for the full control effect; potency is the fitted concentration of half-maximal effect. Some of the compounds tested; rates above refer to the full screens.

| VDR inhibitor | SMILES |
| --- | --- |
| 19% | O=C(C1CCN(S(=O)(=O)Cc2ccccc2)CC1)N1CCN(c2cccc(Cl)c2)CC1 |
| 4% | Cc1noc(C)c1C(=O)OCC(=O)Nc1ccccc1Oc1ccccc1 |
| -7% | CC(C)CN(CC(C)C)S(=O)(=O)N1CCC(C(=O)NCc2ccco2)CC1 |
| 8% | Cc1cccnc1NC(=S)NC(=O)c1cccs1 |
| -8% | COc1ccc(C2CCCN2C(=O)Nc2ccc(C)c(C)c2)cc1OC (stereo not given) |
| -13% | COc1ccc(C)cc1NS(=O)(=O)c1cc(C)ccc1C |
| -9% | CCc1cc(CNC(=O)c2ccc(OC3CCN(CCc4ccccc4)CC3)cc2)on1 |
| -14% | COc1cccc(/C=c2\sc3nc(-c4cccs4)nn3c2=O)c1OC |
| 3% | COc1ccc(C2OC(=O)CC2C(=O)NCc2ccc(Cl)cc2)cc1OC (stereo not given) |
| 3% | CCCn1c2ccccc2c2cnn(CC(=O)NC3CCCCC3)c(=O)c21 |
| -25% | CCOC(=O)c1ccccc1NC(=O)COC(=O)c1ccccc1C(=O)N(C)c1ccccc1 |
| -7% | CCOCCOC(=O)c1[nH]c2c(c1C)C(=O)CC(c1ccc(OC)c(OC)c1)C2 (stereo not given) |
| 2% | CCC(C)NCCOCCOc1ccc(Cl)c2ccccc12 (stereo not given) |
| 7% | CCCCOP(=O)(OCCCC)C(O)c1ccc(Br)cc1 (stereo not given) |
| -7% | c1coc(-c2ccnc(-n3cccc3)n2)c1 |
| 2% | COC(=O)c1cc(S(=O)(=O)N2CCCCC2)c[nH]1 |
| 3% | COc1ccc(C2Nc3ccccc3NC3=C2C(=O)CC(C)(C)C3)cc1OC (stereo not given) |
| -5% | COc1ccc(NS(=O)(=O)c2ccc(OC)c(NC(=O)CCC3CCCCC3)c2)cc1 |
| 9% | COc1ccc([N+](=O)[O-])cc1NC(=O)c1ccco1 |
| 15% | COc1cccc(CN2C(=O)c3ccccc3C2C(=O)NCC2CCCO2)c1 (stereo not given) |
| -28% | COC(=O)c1ccc(CSc2nnc(-c3ccncc3)n2Cc2ccccc2)o1 |
| -15% | COc1ccc(Cl)cc1NC(=O)CN(C)C(=O)C1CC1 |
| 27%&-2% | Cc1cccc(C)c1NC(=O)NCCCN1CCN(c2ccccc2)CC1 |
| -19% | Cc1csc(C(C)NC(=O)c2ccc(OC3CCN(CCc4ccccc4)CC3)cc2)n1 (stereo not given) |
| -13% | CC(C)N1CCN(C(=O)c2ccc(NC(=O)c3ccc(Br)o3)cc2)CC1 |
| -7% | COc1cccc(CN2CCN(Cc3ccc(O)c(OC)c3)CC2CCO)c1 (stereo not given) |
| 6% | Nc1c(C(=O)NCCN2CCOCC2)c2nc3ccccc3nc2n1-c1ccc2c(c1)OCO2 |
| -17% | CC(=O)CC(=O)Nc1ccc2ccccc2c1 |
| 9% | CC(=O)Nc1ccc(NC(=O)Nc2cccc(Cl)c2)cc1 |
| 4% | CC(C)OCCCNC(=O)CCCn1c(SCC(=O)c2ccc(Br)cc2)nc2c(sc3ccccc32)c1=O |
| 2% | Cc1cc(C(=O)COc2ncnc3sccc23)c(C)n1C1CC1 |
| -13% | CC(=O)Nc1nn(C)c2nc(C)cc(C)c12 |
| 14% | O=C(Cn1cnc2c(nnn2Cc2ccc(Cl)cc2)c1=O)NCc1ccco1 |
| 4% | CN1CCC(OC(=O)c2cc3cc(Br)ccc3oc2=O)CC1 |
| -12% | C/C(=N/OC(=O)c1ccc(Br)cc1)c1ccc(C)cc1 |
| -6% | CC(C)C(=O)Nc1ccc(O)c(-c2csc(N)n2)c1 |
| 18% | Cc1nnc(N2CCCC(C(=O)NCCc3ccc(Cl)cc3)C2)c2nn(-c3ccccc3)c(C)c12 (stereo not given) |
| 10% | CCOC(=O)CC(NC(=O)c1ccco1)c1ccc(C)cc1 (stereo not given) |
| 1% | O=C(C1CCC1)N1CCCc2cc(S(=O)(=O)Nc3ccc(F)cc3)ccc21 |
| -26% | CC(=O)c1ccc(NC(=O)C2CCC(CNS(=O)(=O)c3cccc4nsnc34)CC2)cc1 (stereo not given) |

Filtered by structure, the compounds so far containing a furan ring, fused or not (seven)
| VDR inhibitor | SMILES |
| --- | --- |
| -7% | CC(C)CN(CC(C)C)S(=O)(=O)N1CCC(C(=O)NCc2ccco2)CC1 |
| -7% | c1coc(-c2ccnc(-n3cccc3)n2)c1 |
| 9% | COc1ccc([N+](=O)[O-])cc1NC(=O)c1ccco1 |
| -28% | COC(=O)c1ccc(CSc2nnc(-c3ccncc3)n2Cc2ccccc2)o1 |
| -13% | CC(C)N1CCN(C(=O)c2ccc(NC(=O)c3ccc(Br)o3)cc2)CC1 |
| 14% | O=C(Cn1cnc2c(nnn2Cc2ccc(Cl)cc2)c1=O)NCc1ccco1 |
| 10% | CCOC(=O)CC(NC(=O)c1ccco1)c1ccc(C)cc1 (stereo not given) |

New compounds follow.
| VDR inhibitor | SMILES |
| --- | --- |
| 1% | Cc1ccc(C(=O)NCC(=O)Nc2ncccc2C)s1 |
| -6% | Clc1ccc(-c2ncc3ccccn23)c(Cl)c1 |
| 4% | COc1ccc(NC(=S)N2CCc3ccccc3C2)cc1OC |
| 15% | CC(C)C(c1nnnn1Cc1ccccc1)N(Cc1ccco1)Cc1cccs1 (stereo not given) |
| 0% | Cc1nc2c(sc3nc(N4CCOCC4)c4c(c32)CC(C)(C)OC4)c(-c2ccc(Cl)cc2)c1C(=O)O |
| 3% | CN(C)c1nc(-c2ccc([N+](=O)[O-])cc2)cs1 |
| 2% | NC(C(=O)O)C(CC(=O)O)c1ccc(Cl)cc1 (stereo not given) |
| 1% | CCc1ccc(NC(=O)CSc2nc3c(c(=O)[nH]2)CN(Cc2ccc(C)cc2)CC3)cc1 |
| -14% | COC(=O)c1cc(S(=O)(=O)N2CCOCC2)c(N2CCOCC2)cc1N1CCOCC1 |
| 0% | CC(C)(C)NC(=O)COC(=O)c1cc(Cl)ccc1[N+](=O)[O-] |
| -11% | CCCCNC(=O)CCCCC(=O)N/N=C/c1cccc(Cl)c1 |
| -13% | Cc1ccc(NC(=O)c2c([N+](=O)[O-])c(C(C)(C)C)nn2C)cc1 |
| 17% | Nc1ccc(C(=O)N2CCN(S(=O)(=O)c3ccc(Cl)s3)CC2)cc1[N+](=O)[O-] |
| 0% | Cc1cccc(NC(=O)CCS(=O)(=O)c2ccc3c(c2)n(C)c(=O)c(=O)n3C)c1C |
| -18% | O=C(COC(=O)c1ccc(Cl)nc1)NCc1ccc(F)cc1 |
| -4% | COC(=O)c1noc(C)c1-c1ccnn1C(=O)c1ccc(C)cc1 |
| -6% | C#CC1(NC(=O)NCCCC)CCCCC1 |
| -7% | CCn1c(SCC(=O)N2CCCC2)nc2c(c1=O)SC(C)C2 (stereo not given) |
| 3% | COc1cc(C(=S)N2CCOCC2)ccc1OC(=O)c1ccccc1C |
| -1% | COc1ccc(S(=O)(=O)c2c(SC)nn(CC(=O)Nc3ccc(C)c(Cl)c3)c2N)cc1 |
| 2% | NC(=NC(=O)c1ccc(OCC(F)(F)F)nc1)c1ccc(Cl)cc1 |
| -21% | Cc1occc1C(=O)NNC(=O)CN1C(=O)NC(C)(c2ccccc2)C1=O (stereo not given) |
| 12% | O=C(N/N=C/c1cccc(Cl)c1)C1CCCC1 |
| -16% | COc1cccc(/C=C/C(=O)NCCc2ccc(OC)c(OC)c2)c1 |
| 4% | COc1ccc(-c2nn(-c3ccccc3)cc2C(=O)Nc2nccs2)cc1OC |
| 10% | CC(OC(=O)c1ccc(S(=O)(=O)N2CCCCC2)cc1)C(=O)Nc1ccc(C(N)=O)cc1 (stereo not given) |
| -20% | O=C(NC(=S)Nc1ccc(S(=O)(=O)N2CCOCC2)cc1)c1ccccc1[N+](=O)[O-] |
| 6% | CCCCOn1c(C)c(C(=O)OCC)c2c3no[n+]([O-])c3ccc21 |
| -23% | COC(=O)c1ccc(C(=O)NC(=S)Nc2nc3c(s2)CC(C)CC3)cc1 (stereo not given) |
| -1% | COc1ccc(OCCCC(=O)NCc2ccco2)cc1 |
| -6% | CS(=O)(=O)N(CC(=O)NCc1ccco1)c1ccc(Cl)c(C(F)(F)F)c1 |
| 2% | O=C(/C=C/c1ccc(Cl)c([N+](=O)[O-])c1)Nc1ccc(N2CCCC2)c(Cl)c1 |
| 15% | COc1ccccc1NC(=O)C1=C(C)Nc2c(C(=O)Nc3cccc(C)c3)cnn2C1c1ccccc1C (stereo not given) |
| -17% | CCOC(=O)N1CCN(CC(=O)c2ccc3c(c2)CCN3)CC1 |
| -18% | CCOc1ccc(OCc2ccc(C(=O)NC(C)C)o2)cc1 |
| 6% | COc1ccc(NC(=O)C(=O)Nc2ccc3nc4n(c(=O)c3c2)CCCCC4)c(OC)c1 |
| 2% | Cc1ccc(-n2c(C)nnc2SCC(=O)N(C)C2CCS(=O)(=O)C2)cc1 (stereo not given) |
| 12% | O=C1NC(Cc2ccccc2)C(=O)N1Cc1ccccc1 (stereo not given) |
| 5% | Cc1cc(Cl)c(OCCOCCN2CCNCC2)c(Cl)c1 |
| ? | CSc1nc2nc3c(cc2c(=O)[nH]1)C(O)Oc1ccc(C)cc1-3 (stereo not given) |
| 17% | CCOc1ccc(CCNC(=O)COC(=O)CCS(=O)(=O)c2ccc(C)cc2)cc1OCC |
| 0% | COC(=O)C1C(=O)C=C(Nc2ccc(F)cc2F)CC1c1ccccc1 (stereo not given) |
| -7% | Cc1ccc([N+](=O)[O-])cc1NC(=O)CSc1nncn1-c1ccccn1 |
| -19%&-25% | COc1cccc(OC)c1-c1nn2c(-c3n[nH]c4c3CCC4)nnc2s1 |
| 1% | COc1cc(OC)cc(C(=O)Nc2cc(-c3nc4cc(Cl)ccc4o3)ccc2Cl)c1 |
| -9% | CN(Cc1ccc(Cl)cc1Cl)C(=O)c1cccc(S(=O)(=O)NCc2ccccc2)c1 |
| 8% | Cc1ccc(N(Cc2ccccc2)C(=O)Cc2ccc(S(=O)(=O)N3CCOCC3)s2)cc1 |
| -2% | COc1ccccc1N1CCN(/N=C(\C)c2ccc(O)cc2)CC1 |

Next section; it opens with the 7 that closed the last part.
| VDR inhibitor | SMILES |
| --- | --- |
| 0% | COC(=O)C1C(=O)C=C(Nc2ccc(F)cc2F)CC1c1ccccc1 (stereo not given) |
| -7% | Cc1ccc([N+](=O)[O-])cc1NC(=O)CSc1nncn1-c1ccccn1 |
| -19%&-25% | COc1cccc(OC)c1-c1nn2c(-c3n[nH]c4c3CCC4)nnc2s1 |
| 1% | COc1cc(OC)cc(C(=O)Nc2cc(-c3nc4cc(Cl)ccc4o3)ccc2Cl)c1 |
| -9% | CN(Cc1ccc(Cl)cc1Cl)C(=O)c1cccc(S(=O)(=O)NCc2ccccc2)c1 |
| 8% | Cc1ccc(N(Cc2ccccc2)C(=O)Cc2ccc(S(=O)(=O)N3CCOCC3)s2)cc1 |
| -2% | COc1ccccc1N1CCN(/N=C(\C)c2ccc(O)cc2)CC1 |
| 4% | COc1ccc(-c2nnc3ccc(SCC(=O)NCC4CCCO4)nn23)cc1 (stereo not given) |
| 4% | CC1(OC(=O)C2CCCC2)C(=O)C=C2C=C(c3ccsc3)N(CCCCO)C=C2C1=O (stereo not given) |
| i | Cc1ccc(OCCOCCOc2cccc3cccnc23)c(Br)c1 |
| 2% | COc1cc(C2C(C(=O)Nc3ccc(F)cc3)=C(C)Nc3nc(CCCO)nn32)cc(OC)c1OC (stereo not given) |
| 22µM* | Cc1nnc(Sc2cc(NCCO)c([N+](=O)[O-])c3nonc23)s1 |
| 3% | Cc1nc2cccnc2n1-c1cccc(C(=O)N2CCN(c3cccc(Cl)c3)CC2)c1 |
| 11% | COc1cc(C(=O)N2CCc3c([nH]c4ccccc34)C2c2ccc(F)cc2)cc(OC)c1OC (stereo not given) |
| -17% | COc1ccc2ncc(S(=O)(=O)c3ccccc3)c(N3CCN(c4ccccc4)CC3)c2c1 |
| -23% | O=C(NCCOc1ccccc1)C1Nc2ccc(C(F)(F)F)cc2C2c3ccccc3CC12 (stereo not given) |
| -17% | O=C(CSc1ccc2nnc(CCNC(=O)c3ccccc3)n2n1)Nc1ccccc1F |
| 12% | Cc1ccc(-n2ncc(C(=O)NCCN3CCN(C)CC3)c2C2CCN(C(=O)OC(C)(C)C)CC2)cc1C |
| 13% | COc1ccc(OC)c(S(=O)(=O)N2CCCCCC2)c1 |
| -22% | CC(NC(=O)c1cc2cc(Br)ccc2oc1=N)c1ccccc1 (stereo not given) |
| -26%&13% | COc1ccccc1/C=C/c1nc(C#N)c(N(C)C)o1 |
| 13% | CN(Cc1nc(C(c2ccccc2)c2ccccc2)no1)CC1COCCO1 (stereo not given) |
| -19% | CC(C)=CCC/C(C)=C/CNC(=O)CC1C[C@H](C(=O)N2CCCCC2)[C@@]2(C)c3[nH]c4ccccc4c3CCN2C1=O (stereo not given in full) |
| -5% | Cc1ccc(S(=O)(=O)N2CCCC2C(=O)NC2=NCCS2)cc1 (stereo not given) |
| 1%&-14% | CCOc1ccc(NC(=O)CCNS(=O)(=O)c2cccc3nsnc23)cc1 |
| -28% | COc1cc(/C=N/n2c(C3CCCCC3)n[nH]c2=S)ccc1O |
| 1% | Cc1ccc(C(=O)NCC(=O)NC2CCCCCC2)cc1 |
| -2% | Cc1nn(-c2ccccc2)c(C)c1C(=O)NCc1cccs1 |
| 11% | CN(CC1COc2ccccc2O1)C(=O)CSc1ncccn1 (stereo not given) |
| 0% | CC1(C)C2CCC(C2)C1(C)NC(=O)CNC1CCCCC1 (stereo not given) |
| -14% | CCOC(=O)CCC(NC(=O)c1ccccc1C(=O)NC(CCC(=O)OCC)C(=O)OCC)C(=O)OCC (stereo not given) |
| -3% | COc1ccc(Cl)cc1NC(=O)C[n+]1cccc(C)c1 |
| 5% | O=C(NCCCSc1ccccc1)c1ccc(=O)[nH]c1 |

Screens from PubChem BioAssay.
